Assay outcomes (PubChem)
Tg IFNy HTS = T. gondii growth inhibition with IFN-gamma, primary screen, cell-based; Toxoplasma gondii growth in IFN-gamma-treated host cells; hits give low values; reference of the scale not given here; activity change, negative = inhibition, %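 (about 20 µM by stock and volumes)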; 3.8% of 69,000 active; AID 1259416, 2018;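 active means below -70%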;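 further: host cells are HeLa cells infected with Toxoplasma gondii; parasite growth read as luciferase light; one replicate is shown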
An asterisk follows results filed as active; i = inactive; & = joins results of further samples; ! = a repeat was not active. These rows are one share of the data. The share of hits here may be higher or lower than overall.

> OC1(c2ccc(Cl)c(C(F)(F)F)c2)CCN(CCCC(c2ccc(F)cc2)c2ccc(F)cc2)CC1
  Tg IFNy HTS = -85*!

> CCOC(=O)c1nc(N2CCN(C(=O)c3ccco3)CC2)c2ccccc2n1
  Tg IFNy HTS = 112

> O=C1c2ccc(Nc3ccc(F)cc3F)cc2CCc2ccc(OC[C@H](O)CO)cc21
  Tg IFNy HTS = -74*

> COc1cc(OC)c2c(=O)[nH]c(-c3cc(C)c(OCCO)c(C)c3)nc2c1
  Tg IFNy HTS = 48

> CC[C@H](NC(=O)c1c(O)c(-c2ccccc2)nc2ccccc12)c1ccccc1
  Tg IFNy HTS = 19

> CNC(=O)c1cccc2cc(Oc3ccnc4cc(OCC5(N)CC5)c(OC)cc34)ccc12
  Tg IFNy HTS = -8

> COc1cc2c(Oc3ccc4[nH]c(C)cc4c3F)ncnc2cc1OCCCN1CCCC1
  Tg IFNy HTS = -59

> Nc1nc(CC(=O)Nc2ccc(CCNC[C@H](O)c3ccccc3)cc2)cs1
  Tg IFNy HTS = 13

> COc1cccc(CCc2ccccc2OCC(CN(C)C)OC(=O)CCC(=O)O)c1 (stereo not drawn)
  Tg IFNy HTS = 36

> COc1ccccc1OCC(O)COC(N)=O (stereo not drawn)
  Tg IFNy HTS = 4&9

> CN1CCc2c(c3ccccc3n2Cc2ccc(C(=O)NO)cc2)C1
  Tg IFNy HTS = -55

> CC1(C)Oc2ccc(C#N)cc2C(N2CCCC2=O)C1O (stereo not drawn)
  Tg IFNy HTS = -29

> O=C(c1cc(Cc2n[nH]c(=O)c3ccccc23)ccc1F)N1CCN(C(=O)C2CC2)CC1
  Tg IFNy HTS = 10

> Cc1nc(NC(=O)N2CCC[C@H]2C(N)=O)sc1-c1ccnc(C(C)(C)C(F)(F)F)c1
  Tg IFNy HTS = -54

> CC(C)Cn1cnc2c1c(=O)n(C)c(=O)n2C
  Tg IFNy HTS = 12

> CCN(CC)C(=O)Nc1ccc(OCC(O)CNC(C)(C)C)c(C(C)=O)c1 (stereo not drawn)
  Tg IFNy HTS = -6

> Cc1cn([C@@H]2C[C@@H](O)[C@H](CO)O2)c(=O)[nH]c1=O
  Tg IFNy HTS = 1

> CC(=O)NCCCCCC(=O)O
  Tg IFNy HTS = 9

> CN1CCC(=C2c3ccccc3CCc3sccc32)CC1
  Tg IFNy HTS = -4&-8

> Oc1cc(O)c2c(c1)O[C@H](c1ccc(O)c(O)c1)[C@H](O)[C@H]2c1c(O)cc(O)c2c1O[C@H](c1ccc(O)c(O)c1)[C@@H](O)C2
  Tg IFNy HTS = 24

> CC[C@H](CO)Nc1nc(Nc2cccc(-c3ccccn3)c2)c2ncn(C(C)C)c2n1
  Tg IFNy HTS = -79*

> CCn1c(=O)c(-c2ccn[nH]2)cc2c(C)nc(N)nc21
  Tg IFNy HTS = -74*

> CCOC(=O)[C@H](CCc1ccccc1)N[C@@H](C)C(=O)N1C(=O)N(C)C[C@@H]1C(=O)O
  Tg IFNy HTS = 13

> CC1(C)OC(=O)C(OCC2CC2)=C1c1ccc(S(C)(=O)=O)cc1
  Tg IFNy HTS = 9

> O=C(O)CN1C(=O)c2cccc3cccc(c23)C1=O
  Tg IFNy HTS = -39&1

> COc1ccc(OC)c(NC(=O)NCC(c2cccnc2)c2c[nH]c3ccccc23)c1 (stereo not drawn)
  Tg IFNy HTS = i

> Cn1cc(-c2cnc3ccc4ccc(CS(=O)(=O)NCc5ccccn5)cc4c(=O)c3c2)cn1
  Tg IFNy HTS = -11

> Cc1ccc(Cl)cc1N(CC(=O)Nc1c(F)cccc1F)S(C)(=O)=O
  Tg IFNy HTS = -76*

> CC(Oc1c(Cl)cccc1Cl)C1=NCCN1 (stereo not drawn)
  Tg IFNy HTS = 5

> C[C@@H](NC(=O)c1ncnc(N)c1Cl)c1ncc(C(=O)Nc2cc(C(F)(F)F)c(Cl)cn2)s1
  Tg IFNy HTS = -11

Some of these compounds in order of count of non-hydrogen atoms, lowest first.
> O=C(O)CN1C(=O)c2cccc3cccc(c23)C1=O
  Tg IFNy HTS = -39&1

> CCOC(=O)[C@H](CCc1ccccc1)N[C@@H](C)C(=O)N1C(=O)N(C)C[C@@H]1C(=O)O
  Tg IFNy HTS = 13

> COc1ccc(OC)c(NC(=O)NCC(c2cccnc2)c2c[nH]c3ccccc23)c1 (stereo not drawn)
  Tg IFNy HTS = i

Later entries:
> CCO[C@H]1OC(=O)C[C@@H]1NC(=O)[C@@H]1CCCN1C(=O)[C@@H](NC(=O)c1ccc(N)c(Cl)c1)C(C)(C)C
  Tg IFNy HTS = 5

> Nc1cc(-c2ccncc2)c[nH]c1=O
  Tg IFNy HTS = 6&-27&21

> CCNC(=O)/C=C/c1cccc(Br)c1
  Tg IFNy HTS = 31

> CC(=O)[C@H]1CC[C@H]2[C@@H]3C[C@H](C)C4=CC(=O)CC[C@]4(C)[C@H]3[C@@H](O)C[C@]12C
  Tg IFNy HTS = -36&-20

> C[C@@H]1CN(Cc2ncccn2)C[C@H]1c1nc2c(cnn2C2CCOCC2)c(=O)[nH]1
  Tg IFNy HTS = 6

> Cn1ncc(Cl)c1-c1cc(C(=O)N[C@H](CN)Cc2ccc(F)c(F)c2)oc1Cl
  Tg IFNy HTS = -81*

> CCc1ccc(NC(=O)N2CCC(c3nc(C(=O)N4CCCC4)c(C)o3)CC2)cc1
  Tg IFNy HTS = -58

> CN1C(=O)CCc2cc(NC(=O)Cc3ccccc3Cl)ccc21
  Tg IFNy HTS = 11

> Cc1ccc(NC(=O)c2c(O)c3cccnc3n(-c3ccc(F)cc3)c2=O)cc1F
  Tg IFNy HTS = 89

> COc1cc(N)c(Cl)cc1C(=O)NC1CCN(CCCOc2ccc(F)cc2)CC1OC (stereo not drawn)
  Tg IFNy HTS = -59&-43

(continued)
SMILES	Tg IFNy HTS
N[C@@H]1CN(c2c(F)cc3c(=O)c(C(=O)O)cn([C@@H]4C[C@@H]4F)c3c2Cl)CC12CC2	-12
O=c1cc[nH]c(=O)[nH]1	24
O=C(Cn1ncc2c(N3CCN(c4ccccn4)CC3)ncnc21)Nc1ccc(OC(F)(F)F)cc1	29
O=C(Nc1ccc(Cl)cc1)Nc1ccc(Cl)c(C(F)(F)F)c1	-77*
Cc1cc(-c2nc(-c3ccc(OC(F)(F)F)cc3)no2)nn1Cc1ccnc(N2CCN(C3CC3)CC2)c1	-60
Nc1nccs1	12
CO/N=C(\C(=O)N[C@@H]1C(=O)N2C(C(=O)O)=C(C[n+]3ccn4ncccc43)CS[C@H]12)c1nsc(N)n1	16
O=c1cc(-c2ccc(O)cc2)oc2cc(O)ccc12	39
CC(=O)Nc1nc(C)c(-c2ccc(Cl)c(S(=O)(=O)NCCO)c2)s1	-81*
O=C(NCCc1c[nH]c2ccc(Cl)cc12)c1cc(-c2cccnc2)nc2ccccc12	-2
NS(=O)(=O)c1cc2c(cc1C(F)(F)F)NC(Cc1ccccc1)NS2(=O)=O (stereo not drawn)	27&-4&-17
O=C(CCCl)NCCc1ccccc1	31
N#Cc1c(Oc2ccc(F)c(NC(=O)Cc3cccc(C(F)(F)F)c3)c2)ccc2nc(NC(=O)C3CC3)sc12	-68
CCOC(=O)[C@H](CCc1ccccc1)N[C@@H](C)C(=O)N(CC(=O)O)C1Cc2ccccc2C1	0
CCCOc1ccccc1-c1nc2n[nH]nc2c(=O)[nH]1	22&23&13
COc1cc(Nc2c(C#N)cnc3cc(OCCCN4CCN(C)CC4)c(OC)cc23)c(Cl)cc1Cl	-79*

Among those listed so far, 12 contain sulfur:
SMILES	Tg IFNy HTS
Nc1nc(CC(=O)Nc2ccc(CCNC[C@H](O)c3ccccc3)cc2)cs1	13
Cc1nc(NC(=O)N2CCC[C@H]2C(N)=O)sc1-c1ccnc(C(C)(C)C(F)(F)F)c1	-54
CN1CCC(=C2c3ccccc3CCc3sccc32)CC1	-4&-8
CC1(C)OC(=O)C(OCC2CC2)=C1c1ccc(S(C)(=O)=O)cc1	9
Cn1cc(-c2cnc3ccc4ccc(CS(=O)(=O)NCc5ccccn5)cc4c(=O)c3c2)cn1	-11
Cc1ccc(Cl)cc1N(CC(=O)Nc1c(F)cccc1F)S(C)(=O)=O	-76*
C[C@@H](NC(=O)c1ncnc(N)c1Cl)c1ncc(C(=O)Nc2cc(C(F)(F)F)c(Cl)cn2)s1	-11
Nc1nccs1	12
CO/N=C(\C(=O)N[C@@H]1C(=O)N2C(C(=O)O)=C(C[n+]3ccn4ncccc43)CS[C@H]12)c1nsc(N)n1	16
CC(=O)Nc1nc(C)c(-c2ccc(Cl)c(S(=O)(=O)NCCO)c2)s1	-81*
NS(=O)(=O)c1cc2c(cc1C(F)(F)F)NC(Cc1ccccc1)NS2(=O)=O (stereo not drawn)	27&-4&-17
N#Cc1c(Oc2ccc(F)c(NC(=O)Cc3cccc(C(F)(F)F)c3)c2)ccc2nc(NC(=O)C3CC3)sc12	-68
